# Compound activity: PubChem, several laboratories
# BJeLR lethal: kills HRASV12-expressing BJeLR cells; inhibition, % (concentration not given with the values); AID 1554; BJeLR (HRASV12) viability, CellTiter-Glo ATP luminescence, 48 h; reference of the scale not given here; hit rate 0.17% among 300,000;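 active = replicate mean above 50%; inconclusive = above 50% but judged a plate artefact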;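 note: 50 nL library stock added to about 25 µL; numbers are from one replicate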
# Mtb hypoxia inh: Mtb hypoxia fluorescent reporter inhibition; M. tuberculosis hypoxia-regulated fluorescent reporter, fluorescence; fluorescence inhibition, % (test concentration not listed); hit rate 0.1% among 300,000;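 active = 35 to 45% if threefold the growth effect, above 45% if 1.5-fold the growth effect; inactive = the rest, general growth blockers included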;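 note: wells of about 50 µL received 100 nL stock; 0% = vehicle wells and 100% = reference inhibitor wells; whole bacteria with a GFP reporter of the hypoxia response; strong numbers were not always called active; many hits fall short of the cut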
# RN4220 kill: kills Staphylococcus aureus RN4220. S. aureus RN4220 growth, OD600, 16 h. inhibition, % (concentration not given with the values). hit rate 0.33% among 330,000. AID 1259311;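 active = z-score of -3 or lower and OD600 up to 0.18 on both plates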;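 note: plate controls were untreated cells for no effect and reference antibiotic for full effect; stock transfer was 100 nL into about 80 µL; one replicate is shown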
# Sa ugtP lethal: compounds lethal to S. aureus RN4220 ugtP deletion mutant. hit rate 0.54% among 330,000. growth inhibition, % (test concentration not listed). OD600 growth, 16 h; some inactives read as strong as hits;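 active = z-score under -3 and OD600 up to 0.15 on both plates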;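 note: plate controls were untreated wells for no effect and antibiotic for full effect; wells of about 80 µL received 100 nL stock; the first replicate is given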
# PrP 5UTR inh: inhibition of PrP 5' UTR reporter expression | cell-based PrP 5' UTR mRNA reporter, plate reader | inhibition, % (test concentration not listed) | hit rate 0.35% among 340,000;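 active = every replicate at 50% or more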;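 note: 0 = median of the neutral control wells; tested in H4 reporter cells; numbers are from one replicate; inactives centre near -14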
# Autofluor counter: counter-screen for toxin protease inhibitors: compound fluorescence | compound autofluorescence counterscreen, microsphere flow cytometry; hits give high values | fluorescence intensity (test concentration not listed) | hit rate 3.1% among 360,000 | AID 624483;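 active = at least 3 SD above the mean of all compounds, about 16000 in these data; inconclusive = too few beads counted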;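 note: 100 nL of 1 mM stock went into each well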
# Mtb hypoxia inh growth: further read-out of Mtb hypoxia inh, marked with its call; growth inhibition, %; measured here: M. tuberculosis growth (absorbance);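 0% = vehicle and 100% = reference antibiotic; read after six days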
# The depositor's hits bear a star; ? = inconclusive; . = no result given.
nr	compound	BJeLR lethal	Mtb hypoxia inh	Mtb hypoxia inh growth	RN4220 kill	Sa ugtP lethal	PrP 5UTR inh	Autofluor counter
1	C[C@@H]1CN([C@@H](C)CO)C(=O)c2cccc(NS(C)(=O)=O)c2O[C@H]1CN(C)C(=O)Nc1ccc(F)cc1	.	-5	-1	1.8	3	-41	3432
2	O=C(Nc1ccc(Cl)cc1C(=O)NCCN1CCOCC1)c1ccco1	16	-1	2	0.5	1	1	6786
3	CCCCCCC[C@@H](C/C=C/CCC(=O)N(C)C/C(=C/Cl)C/C(=C\C(=O)N1C[C@H](O)CC1=O)OC)OC	.	-4	4	2.1	-16	-10	3515
4	COc1ccc(CC(=O)NN=Cc2cccn2-c2ccc([N+](=O)[O-])cc2)cc1OC	.	2	2	-3.3	0	.	.
5	O=C1CC(c2ccco2)c2ccc3ccccc3c2N1 (configuration not stated)	.	.	.	7.8	-11	1	3024
6	CCN(CC(=O)Nc1c(F)cccc1F)C(=O)CNC(=O)c1ccc(C)s1	3	-3	8	-1.5	-1	-2	6289
7	CCOc1ccc(OCC)c(S(=O)(=O)NCCCN2CCOCC2)c1	-2	6	8	-4.3	-6	8	?
8	COc1ccc(C(=O)Nn2c(SCC(=O)NCc3ccccc3)nc3ccccc3c2=O)cc1	10	7	7	0.6	5	46	8897
9	CCOc1ccc(Nc2ccnc3cc(Cl)ccc23)cc1	22	12	11	3.0	7	-10	3383
10	Cn1ncc2c(Nc3ccc(Br)cc3)nc(Nc3ccc(Br)cc3)nc21	11	.	.	.	.	-24	4205
11	O=C(Nc1ccc(Cl)cc1)Nc1ccc(-c2cnco2)cc1	11	-1	2	-11	-17	-64	4125
12	COc1ccsc1C(=O)N1CCN(Cc2ccc3c(c2)OCO3)CC1	11	.	.	9.7	17	-1	2457
13	CCN(CC)CCNC(=O)c1cc2c(=O)n(C)c3ccccc3c2s1	14	.	.	.	.	-34	3897
14	CCOc1ncccc1C(=O)NNC(=O)c1cccc(S(=O)(=O)Nc2ccccc2OC)c1	1	2	3	4.9	4	-61	5416
15	CCOCCCNC(=O)c1cc(Sc2ccc(C)cc2)nc2ccccc12	-3	6	6	5.2	8	-14	2087
16	Cc1cc2c(ncn2Cc2ccccc2)c(NS(C)(=O)=O)c1C	0	4	-2	-3.2	13	-19	3285
17	S=C(NCc1ccccc1)Nc1ccncc1	8	3	-9	1.1	2	-20	4115
18	O=C(/C=C1\NC2(CCCC2)Cc2ccccc21)C(=O)N/N=C/c1ccccc1O	1	.	.	.	.	20	10891
19	CC(=O)N/C(=C\c1ccc(F)cc1)C(=O)OC(C)C	7	11	2	8.4	5	-8	2624
20	CCCc1ccc(OCC(O)CN2CCN(C(=O)OCC)CC2)cc1 (configuration not stated)	0	8	9	7.3	16	-12	4135
21	CCCSc1ccc(C2C3C(=O)N(CC)C(=O)C3[C@]3(C(=O)OC)CCCN23)cc1OC (some centres not stated)	.	12	8	8.3	4	.	.
22	O=C1NCC(=O)N2C(c3ccccc3)c3[nH]c4ccccc4c3C[C@@H]12 (some centres not stated)	3	8	0	-3.5	-2	-8	4223
23	CSc1ccc(CCNC(=O)CSc2ccsc2[N+](=O)[O-])cc1	-8	3	7	6.2	-6	-9	3117
24	COc1ccc(C/C(C)=N/NC(=S)Nc2ccc(C)c(C)c2)cc1	5	.	.	.	.	-24	2486
25	Cc1ccc(S(=O)(=O)N(CC2CO2)c2cccc([N+](=O)[O-])c2)cc1 (configuration not stated)	-2	12	16	-1.6	5	-12	5559
26	Fc1ccc(COc2cccc(-c3n[nH]c(=S)o3)c2)cc1	4	-4	-2	26	5	-13	2064
27	CCOC(=O)CN1N=C(/C=C/c2ccc(C(C)C)cc2)CCC1=O	-6	5	13	7.0	12	-12	2082
28	CCN(Cc1ccncc1)Cc1nc(CC2CC2)no1	11	8	-4	2.0	10	-18	4634
29	Cc1cnc(SCc2cnc(C)nc2N)nc1	-2	5	-1	4.3	4	-22	4254
30	CC(C)C(=O)Nc1cc(-c2nc3ncccc3o2)ccc1Cl	-7	16	7	7.1	1	-29	3459
31	O=C(Nc1ccc(S(=O)(=O)N2CCCC2)cc1)c1cncc(Br)c1	.	-2	-1	1.4	-1	-6	8813
32	NC(=O)CCC1NC(=O)C(CO)NC(=O)c2cc([N+](=O)[O-])cc(I)c2NCCCC(C(N)=O)NC(=O)C(Cc2ccc(O)cc2)NC1=O (configuration not stated)	.	4	13	5.5	4	.	.
33	O=C(NN=Cc1cccc(O)c1)c1ccc(-n2cnnn2)cc1	.	-3	14	0.9	-4	.	.
34	Cc1cccc(NC(=O)CN2CCN(C(=O)COc3cccc(Br)c3)CC2)c1C	.	10	-5	1.4	3	-27	8828
35	Cn1nc(C(=O)NCc2ccccc2)c2ccccc2c1=O	3	.	.	2.5	4	-16	3811
36	CCOc1ccc(Nc2nc(Cc3nnc(SCC(=O)NCc4ccco4)n3CC)cs2)cc1	0	4	10	1.2	6	-10	5994
37	CCOc1ccc(CN2CCN(Cc3c[nH]c4ccccc34)CC2)cc1	3	13	15	-2.0	17	-7	3825
38	COc1ccc2nc(N3CCCCC3)c(/C=C3\SC(=S)NC3=O)cc2c1	-8	-2	-10	77	73	-15	3882
39	COc1ccc(-c2cc(-c3ccc(Br)cc3)nc3ncnn23)cc1OC	-1	.	.	18	4	2	2409
40	CCOc1ccc(N2C(=O)CN(CC(=O)OC)C2=S)cc1	-1	8	8	4.8	13	-27	4754
41	O=C(Nc1c2n(c(=S)n(-c3ccccc3)c1=O)CCCCC2)c1ccccc1	1	3	8	11	3	-12	4222
42	CN1CCC(Oc2ccccc2Sc2ccc(C(F)(F)F)cc2)CC1	-8	19	4	3.9	0	-14	2301
43	Cc1ccc(S(=O)(=O)/N=C(/NC(=S)Nc2cccc(C)c2)c2ccccc2)cc1	3	2	2	6.5	-14	-6	3040
44	Cc1ccc(C(=O)N2C3CN(C)C(=O)[C@@]2(Cc2ccccc2)C2C(=O)N(Cc4ccccc4)C(=O)C32)cc1 (some centres not stated)	.	17	-1	6.5	1	.	.
45	CSc1ccc(CN2CCC(Oc3cccc(C(=O)N4CCCC4)c3)CC2)cc1	10	0	5	1.1	4	-9	6778
46	O=C1c2ccccc2CCC1C(O)c1ccccn1 (configuration not stated)	-18	11	8	8.9	9	-17	7099
47	NC(=O)N/N=C/C=C/c1ccc(F)cc1	8	.	.	.	.	-12	3950
48	O=C(CCCCC(=O)NCCCc1ccccc1)NCCCc1ccccc1	-8	-1	7	-3.5	6	3	4073
49	COCCn1c(SCC(=O)N2CC(=O)Nc3ccccc32)nc2ccccc21	2	1	6	4.9	-2	-17	2305
50	CN1CCN(C(=O)/C=C/c2cccc(Cl)c2)CC1	-7	16	3	4.9	4	-15	5285
51	C/C(=N/NC(=O)c1sc(NS(=O)(=O)c2ccccc2)nc1C)c1ccccc1	5	.	.	.	.	-22	2447
52	CC(NC(=O)OC(C)(C)C)C(=O)Oc1ccc2ccc(=O)oc2c1 (configuration not stated)	.	.	.	-0.3	12	-15	5711
53	FC(F)(F)c1ccc(Sc2n[nH]c(C(F)(F)F)n2)nc1	-12	4	8	21	12	-23	3364
54	CCCOc1ccc(C(CC(=O)O)NC(=O)c2sc3ccccc3c2Cl)cc1 (configuration not stated)	8	3	1	4.9	-5	-13	4974
55	Nc1ccc2c(c1)OC1(CCCCC1)O2	-1	8	8	2.1	9	-22	4163
56	CC(C)CC1(C)NC(=O)N(CC(=O)Nc2ccc3c(c2)CCC3)C1=O (configuration not stated)	6	-1	2	3.1	3	-25	3355
57	COc1ccc(-c2noc(Cc3ccc(Cl)cc3)n2)cc1OC	-1	5	2	5.4	8	-43	5972
58	CC(=O)Nc1c(Cl)c2c(c(Cl)c1Br)-c1ccc(Cl)cc1C2	.	3	1	13	34	-22	3390
59	COC(=O)c1sc(=S)n(-c2cc(F)ccc2F)c1N	-1	6	8	2.4	-7	-8	19767*
60	Cc1cccn2cc(CSc3nnc(Nc4ccc(C(C)C)cc4)s3)nc12	3	3	8	2.7	4	-5	2229

# The listing continues.
nr	compound	BJeLR lethal	Mtb hypoxia inh	Mtb hypoxia inh growth	RN4220 kill	Sa ugtP lethal	PrP 5UTR inh	Autofluor counter
61	Cc1cccc(NC(=O)C2(c3ccccc3)CC2(Cl)Cl)c1 (configuration not stated)	-8	5	5	0.1	-11	-5	9863
62	CC1(C)C(=O)C2(CCCCC2)C(=O)OC1c1ccc(O)cc1 (configuration not stated)	2	5	7	0.6	-3	.	10260
63	O=C(Nc1nnc(COc2ccc(F)cc2)s1)c1ccco1	7	-6	1	-0.4	-9	.	3478
64	CC(=O)/C(C#N)=C1\NC(=O)C(Cc2ccc(C)c(Cl)c2)S1 (configuration not stated)	14	-5	-7	47	23	-6	.
65	CCOC(=O)c1sc(Nc2ccc(C)cc2C)nc1C	9	.	.	0.6	7	0	4444
66	CC1CN(C(C)CO)C(=O)c2cccc(NS(=O)(=O)c3ccc(F)cc3)c2OC1CN(C)CC1CCCCC1 (configuration not stated)	.	-11	-1	-1.0	-10	.	.
67	Cc1ccc(CNC(=O)c2ccc(Cl)cc2[N+](=O)[O-])cc1	-5	-4	13	3.8	-4	-10	6221
68	CSc1nc(-c2ccco2)cc(C(F)(F)F)c1C#N	-8	3	7	6.9	-3	-10	8471
69	Cc1ccc(NC(=O)CCOc2ccccc2)c(C)c1	-3	9	-1	1.4	4	-15	2845
70	CCOc1ccc(CN(C)C(=O)c2cccnc2SC)cc1OC	11	13	3	0.4	4	-26	4394
71	CN(C)S(=O)(=O)c1ccc(S(=O)(=O)N(Cc2ccco2)Cc2ccccc2Cl)cc1	6	16	2	5.3	5	-2	10976
72	CC1=Nc2ccc(C)cc2/C1=C/c1c(N)n2c(S(=O)(=O)C(C)C)nsc2nc1=O	-3	0	12	-1.4	17	-10	2493
73	Cc1cc(C(=O)COC(=O)CNC(=O)c2ccco2)c(C)n1Cc1ccco1	1	9	5	4.3	-6	-20	2523
74	COc1cc(C=NNC(=O)CN(CCc2ccccc2)S(=O)(=O)c2ccc(NC(C)=O)cc2)cc(OC)c1OC	.	5	-9	-2.2	4	.	.
75	Cc1cccn2c(=O)c3cc(C(=O)NCCN4CCOCC4)c(=N)n(Cc4ccc(F)cc4)c3nc12	-3	16	8	4.0	-1	-5	.
76	O=C(Nc1ccccc1C(F)(F)F)N1CCCC1c1cccnc1 (configuration not stated)	-5	7	-8	2.9	8	-10	3538
77	O=C1NCC(c2ccccc2)N(CCC23CC4CC(CC(C4)C2)C3)C1=O (configuration not stated)	.	9	5	1.9	13	.	.
78	O=C(N/N=C/c1ccco1)C1CC1	-17	.	.	.	.	-1	2207
79	O=C(c1cccc(F)c1)N1CCN(c2cccc(Cl)c2)CC1	2	12	14	4.1	5	5	8732
80	CC(=O)c1c(O)c2ccccc2n(C)c1=O	0	11	19	11	4	-28	4747
81	O=C(O)CC1S/C(=N/N=C/c2ccc(-c3ccccc3[N+](=O)[O-])o2)NC1=O (configuration not stated)	-5	.	.	.	.	-33	23815*
82	Cc1[nH]nc(SCC(=O)Nc2ccc(C#N)cc2)c1[N+](=O)[O-]	-19	.	.	.	.	-15	2453
83	Cc1ccc(S(=O)(=O)N(C)Cc2cc3cc(C)ccc3[nH]c2=O)cc1	7	1	1	5.2	3	-11	5203
84	Cc1ccc(-c2nc(-c3ccncc3)no2)cc1Cl	-2	8	1	6.3	7	-58	3415
85	COc1cccc(C(O)c2nc3ccccc3n2C(C)C)c1OC (configuration not stated)	-2	6	6	1.4	15	-8	4127
86	CC(=O)c1ccc(S(=O)(=O)Nc2cc3c(cc2C(C)=O)OCO3)cc1	-5	-8	4	1.1	-2	-22	4547
87	CCOc1cc(C)cc2oc(=O)c3c(c12)CCCC3	-6	7	0	0.4	-1	-17	3235
88	COC(=O)C1=C(C)N(Cc2ccccc2)C(=O)N[C@H]1c1cccs1	-2	.	.	.	.	-4	3019
89	Cc1cc(=O)oc2cc(NC(=O)c3cccc(Br)c3)ccc12	-2	1	7	2.2	8	-60	3845
90	CCOc1ccc(NC(=O)c2ccccc2C(=O)c2ccccc2)cc1OCC	8	3	7	2.1	4	-18	2937
